# Screening results (PubChem BioAssay)
# Mtb growth: Mycobacterium tuberculosis H37Rv growth inhibition, cell based, confirmatory dose response (AID 1949). most inactive calls were filed without a number and no value below 0 was filed. hit rate 1.6% among 100,000. one-dose inhibition, % at 10 µg/mL; IC50 in µg/mL for titrated hits. M. tuberculosis H37Rv growth inhibition;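 active = confirmed in a dose series; inconclusive = about 50% or more but not retested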;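 also: bacteria grown 7 days with compound before Alamar blue readout; 0% = untreated bacteria and 100% = reference antibiotic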
# * marks the source's active call; other numbers are inactive results; i = inactive; ? = inconclusive. These rows are one share of the data; the hit share may differ from the screen's.
smiles	Mtb growth
O=C(Cc1c(F)cccc1Cl)Nc1ccc(Cl)cn1	i
NC(=O)NC(c1ccccc1)c1cccc(Cl)c1 (stereo not given)	i
O=C(Cc1cccc2ccccc12)Nc1ccc(OCC(=O)N2CCOCC2)cc1	i
Cc1ccc(Cl)cc1NC(=O)C1CCN(S(=O)(=O)c2ccc(F)cc2)CC1	i
CC1CC(C)(C)Nc2ccc(OC(=O)c3ccco3)cc21 (stereo not given)	?
O=C(CC12CC3CC(CC(C3)C1)C2)Nc1cc(-c2nc3ccccc3o2)ccc1Cl	i
Cc1ccc(SCC(=O)NCCSCc2ccccc2C)cc1	i
CCOc1ccc2nc(NC(=O)c3ccc(C)o3)sc2c1	i
Cc1ccccc1NC(=S)NCCc1ccccn1	i
CCn1c(CC(=O)Nc2cccc(OC)c2)nnc1SCC(=O)N1CCN(c2ccccc2)CC1	i
COC(=O)CCN(C(=O)c1ccc(OC(C)=O)cc1)c1ccccn1	i
CCOc1ccc(S(=O)(=O)n2cc(-c3ccc(F)cc3)c(N)n2)cc1	i
CCOC(=O)c1sc2ncn(CC(=O)Nc3sc4c(c3C(=O)OCC)CCCC4)c(=O)c2c1C	i
COc1ccc(CCNC(=O)c2ccccc2)cc1OC	i
CCN(CC)S(=O)(=O)c1cc(C(N)=O)ccc1Br	i

# (cont.)
smiles	Mtb growth
O=C(NCc1ccccn1)c1ccc(Br)s1	0%
Cc1cccc(NC(=S)Nc2cccc(F)c2)n1	9%
COC(=O)c1c(-c2cccc(C)c2)csc1N	i
CC(=O)Nc1cccc(-c2nnc(SCC(=O)n3c4c(c5ccccc53)CCCC4)n2C)c1	i
O=C(Cc1cccs1)NC1CCN(Cc2ccccc2)CC1	i
Cc1ccc(-c2csc3nc(SCC(=O)NCc4ccco4)n(-c4ccccc4)c(=O)c23)o1	i
CS(=O)(=O)N(CC(=O)Nc1ccc(F)cc1F)Cc1ccccc1	i
S=C(NC1CCCC1)N1CCOCC1	i
COc1ccc(CCC(=O)NCc2ccccn2)cc1	5%
Cc1ncc([N+](=O)[O-])n1CC(=O)Nc1ccc(Br)c(Cl)c1	i
O=C(Nc1ccccc1-c1nc2ccccc2s1)c1ccc(-c2cccc([N+](=O)[O-])c2)o1	i
CC1CCCN(CCOc2ccc(Br)cc2)C1 (stereo not given)	2%
Cc1cc(-c2ccccc2)n2nc(N)nc2n1	i
O=C(c1ccccc1)N1CCN(c2ccc([N+](=O)[O-])cc2C(F)(F)F)CC1	i
Cc1sc2nc(SCCCCN3C(=O)c4ccccc4C3=O)n(-c3ccccc3)c(=O)c2c1C	i

# Additional results:
smiles	Mtb growth
Cc1c(NC(=S)NC(=O)c2ccccc2F)c(=O)n(-c2ccccc2)n1C	i
CC(C)(C)c1ccc(C(=O)N2CCC(C(=O)Nc3ccc(Br)cc3F)CC2)cc1	i
COc1ccc(N(CC(=O)NCc2ccco2)S(=O)(=O)c2ccccc2)cc1Cl	i
CCOc1ccc(-c2nnc(SCc3cc(C(C)=O)ccc3OC)n2-c2ccccc2)cc1	i
COc1ccc(-c2cccc(C(=O)Nc3ccccc3C)c2)cc1	i
COc1ccc(C(=O)Nc2cccc(Cl)c2)cc1S(=O)(=O)N1CCOCC1	i
COc1ccccc1NS(=O)(=O)c1cc(C(=O)O)ccc1F	i
Cc1cccc(C(=O)NC(=S)Nc2ccc(NC(=O)c3ccco3)c(C)c2)c1	29%
COc1ccc(CNC(=O)c2cc(F)c(F)cc2Cl)cc1OC	i
COc1cccc(C2CC(c3cccc(Br)c3)n3ncnc3N2)c1 (stereo not given)	2%
O=C(O)CNS(=O)(=O)c1ccc(F)cc1	i
Cc1ccc(C(=O)C(OC(=O)CNS(=O)(=O)c2ccccc2)c2ccccc2)cc1 (stereo not given)	i
O=C(CSC1CC(=O)N(CCc2ccccc2)C1=O)Nc1ccc(Cl)cc1 (stereo not given)	i
CC(=O)c1ccc(N2CCN(C(=O)C3CCCO3)CC2)cc1 (stereo not given)	i
COc1ccccc1C1CC(c2ccccc2)=NN1C(=O)c1ccccc1 (stereo not given)	4%

# (continued)
smiles	Mtb growth
CCCCOc1ccccc1NC(=O)COC	i
CCCc1cc(=O)n(CC)c(NC2CCCCC2)n1	i
Cc1ccc(S(=O)(=O)NNC(=O)c2ccc3ccccc3n2)cc1	i
O=C(NCCc1cccc(Cl)c1)c1cccs1	i
CC(Oc1ccc(C(=O)NCCc2ccccc2)cc1)C(=O)O (stereo not given)	3%
Cc1ccc2c(c1)c1nc3ccccc3nc1n2CCN1CCOCC1	1%
COc1ccc(N(C)S(=O)(=O)c2cc(C(=O)O)c(Cl)cc2Cl)cc1	i
Cc1cc(=O)cc(C)n1-c1ccccc1O	i
Cc1ccc(C)c(C(=O)NC(C)(C)C)c1	0%
O=C(COc1ccc(Cl)cc1Cl)Nc1nnc(COc2ccc(Cl)cc2)s1	1%
Cc1ccc(-c2n[nH]c(=S)c3ccccc23)cc1S(=O)(=O)NCC1CCCO1 (stereo not given)	i
O=C1CC(c2ccccc2)CC2=C1C(c1cccc(OCc3ccccc3)c1)Nc1ccccc1N2 (stereo not given)	9%
C=CCn1c(Cc2ccccc2)nnc1SCC(=O)Nc1cc(C(F)(F)F)ccc1Cl	i
CCOC(=O)c1ccc(N2C(=O)c3ccc(C(=O)Nc4ccc(O)cc4C(=O)O)cc3C2=O)cc1	i
Cc1ccc(N2C(=O)NC(c3ccccc3)(C(F)(F)F)C2=O)nc1 (stereo not given)	0%

# (list continues)
smiles	Mtb growth
CC(C)(C)CC(=O)Nc1ccc2ccccc2c1	3%
COc1cc(OC)cc(C(=O)NC(C)(C)CC(C)(C)C)c1	5%
Cc1ccc(S(=O)(=O)N2CCC(C)CC2)cc1C	i
Cc1cccc(C)c1OCC(=O)N1CCc2ccccc21	2%
O=C(c1sc2ccccc2c1Cl)N1CCCN(C(=O)c2sc3ccccc3c2Cl)CC1	i
CCC(Sc1ncc(-c2ccccc2)nn1)C(=O)Nc1cccc(C(C)=O)c1 (stereo not given)	i
Cc1ccccc1C(=O)Nc1ccc(C(=O)c2ccccc2)cc1NC(=O)c1ccccc1C	13%
Nn1c(SCC(=O)c2ccc(Cl)cc2Cl)nnc1-c1ccccc1	1%
O=C(NC(=S)Nc1ccc(I)cc1Cl)c1cc(Cl)ccc1Cl	i
CCc1ccc(NC(=O)CSc2nnc(CCNC(=O)c3cccs3)n2C)cc1	i
CC(=O)N(C)c1ccc(NC(=O)NC2CCCCC2)cc1	i
CC(C)C(=O)N1CCN(c2ccc(NC(=O)COc3ccc(C4CCCCC4)cc3)cc2)CC1	6%
COc1ccc(Oc2coc3cc(OCc4cccc(C)c4)ccc3c2=O)cc1	i
O=C(Nc1nc(-c2ccccc2)ns1)c1ccncc1	i
NC(=O)CSc1nc(O)cc(=O)n1-c1ccccc1	i

# Next section
smiles	Mtb growth
N#Cc1c(NC(=O)c2cnn3cccnc23)sc2c1CCCC2	i
CC(C)NC(=O)CN(C)S(=O)(=O)c1ccccc1	i
COc1cc(NC(=O)CSC2=C(C#N)C(c3ccc(OC)c(OC)c3)CC(=O)N2)c(OC)cc1Cl (stereo not given)	i
CCC(=O)NC(=S)Nc1cccc(C(=O)O)c1	3%
CN(C)CCNS(=O)(=O)c1ccc(Cl)cc1	i
NS(=O)(=O)c1ccc(NC(=S)NCc2ccccn2)cc1	i
CC(C)CNC(=O)CSCc1ccccc1Cl	i
CCCc1c(C)nc(Nc2nc(C)c3cc(C)ccc3n2)[nH]c1=O	i
O=C(CS(=O)(=O)c1ccccc1)Nc1cccnc1	i
Cc1cc(Br)ccc1OCC(=O)NC(C)c1ccccc1 (stereo not given)	i
COc1ccc(NC(=O)COc2ccc(S(=O)(=O)NC3CCCCC3)cc2)c(OC)c1	i
COc1cc(SC)ccc1C(=O)Nc1ccccc1C#N	i
Cc1cnn(C(=O)c2ccc(Cl)s2)c1	6%
CCOC(=O)c1c(NC(=O)COc2cccc(CC)c2)sc2c1CCC2	i
COc1cc2ccccc2cc1C(=O)NC(=S)Nc1ccc(Cl)c(C(=O)O)c1	i

# Carrying on:
smiles	Mtb growth
C=CCOc1ccc(C2C3=C(CCCC3=O)NC3=C2C(=O)CCC3)cc1OC	i
CCCCc1nc(SCC(=O)Nc2nc3c(s2)CCCC3)n[nH]1	i
CCOc1ccc(C(=O)NCCN2CCCC2)cc1	0%
O=C(CSc1ncnc2sc3c(c12)CCCCC3)NCC1CCCO1 (stereo not given)	i
C1CN=C(SCCCCSC2=NCCCN2)NC1	4%
COc1cc(COC(C)=O)ccc1OCc1ccccc1	2%
Cc1cc(C)nc(NS(=O)(=O)c2ccc(NC(=O)N3c4ccccc4Sc4ccccc43)cc2)n1	i
COc1ccccc1C(=O)Nc1ccc(S(=O)(=O)Nc2nccs2)cc1	i
COc1ccc(S(=O)(=O)Nc2ccc(CC#N)cc2)cc1	i
COc1cc(C(C)=O)ccc1OCC(O)Cn1nc(C)c(C(C)=O)c1C (stereo not given)	i
COC(=O)C1(C(F)(F)F)C2C=CC(C2)N1S(=O)(=O)c1ccccc1 (stereo not given)	i
O=C(Cc1ccccc1[N+](=O)[O-])Nc1ccc(CSc2ccccc2)cc1	i
O=c1[nH]c(/C=C/c2cc(Cl)c(O)c(Cl)c2)nc(O)c1[N+](=O)[O-]	i
O=C(Nc1cccc(Cl)c1Cl)C1CCC(N2C(=O)C3C4CCC(C4)C3C2=O)CC1 (stereo not given)	i
Nc1ncc2c(n1)CC(c1ccc(F)cc1)CC2=O (stereo not given)	i

# Carrying on.
SMILES,Mtb growth
Nc1nn(S(=O)(=O)c2ccccc2)cc1-c1ccc(F)cc1,4%
CC(C)Oc1ccc(N2CC(C(=O)Nc3cc(C(F)(F)F)ccc3Cl)CC2=O)cc1 (stereo not given),i
CNC(=O)C(=O)NCCN1CCN(C(=O)c2cccc(Br)c2)CC1,i
COc1ccccc1C(=O)N1CCC(N2CC(C)OC(C)C2)CC1 (stereo not given),1%
COc1ccc(-c2cc(C(=O)Nc3ccc(C)cc3[N+](=O)[O-])c3ccccc3n2)cc1OC,i
Cc1ccc(N2CCN(C(=O)N3CCCCCC3)CC2)cc1Cl,3%
CCOc1cc(C(=O)Nc2ccc(Cl)c(-c3nc4ccccc4o3)c2)cc(OCC)c1OCC,5%
Cc1ccccc1C(=O)N1CCN(c2ccc(NC(=O)c3ccc(-c4cccc(Cl)c4)o3)cc2)CC1,21%
Cc1ccc(OCCNC2CCCC2)c(I)c1,i
COc1ccc(C2=NN(S(C)(=O)=O)C(c3cccc(OC)c3OC)C2)cc1 (stereo not given),i

# Additional records:
SMILES,Mtb growth
COC(=O)c1cccc(NC(=S)N2CCCCC2)c1,i
Cc1ccc(S(=O)(=O)N(CC(=O)Nc2ccccc2C(C)C)c2cccc(Cl)c2C)cc1,3%
CCc1cccc2c(C=O)cn(CC(=O)N3CCCCC3)c12,i
Cc1cccc(C(=O)N2CCN(c3ccc([N+](=O)[O-])c(-n4nc(C)c5ccccc5c4=O)c3)CC2)c1,2%
CCCCc1cc(=O)oc2c(C)c(OCC(=O)C(C)(C)C)ccc12,3%
OCc1ccc(-c2ccc(Br)cc2)o1,i
Cc1ccc2oc(-c3ccc(Cl)c(NC(=S)NC(=O)c4cccc([N+](=O)[O-])c4C)c3)nc2c1,i
CCCNC(=S)Nc1cccc(C)c1C,i
COc1cc2c(cc1OC)-c1nnc(-c3cccnc3)n1C1(CCCC1)C2,i
O=C1c2ccccc2C(=O)N1Cc1c(Cl)cccc1Cl,i

# The list continues:
SMILES,Mtb growth
C=CCn1c(NCc2ccc(N(C)C)cc2)nc2ccccc21,3%
COc1ccc(S(=O)(=O)N2CCC(Cc3ccccc3)CC2)cc1Br,i
CCNC(=O)c1cc(OC)c(OC)cc1OC,i
O=C(COc1ccccc1)Nc1ccc2c(c1)Cc1cc(NC(=O)COc3ccccc3)ccc1-2,i
O=C(NCc1cccnc1)c1ccc2nc(-c3ccccc3)c(-c3ccccc3)nc2c1,18%
O=C(CCCOc1ccc(Cl)cc1Cl)N1CCN(Cc2ccc3c(c2)OCO3)CC1,i
Cc1cc(I)ccc1NC(=S)NC(=O)c1cccc(F)c1,4%
COc1ccc(S(=O)(=O)N(CC(=O)Nc2cc(OC)ccc2OC)c2cccc(Cl)c2)cc1,i
Cc1c(CCC(=O)O)c(=O)oc2c(C)c(OCC(=O)O)ccc12,i
CN1CCC2(CC1)CC1CC3C=CC1(CN2)O3 (stereo not given),i

# Next section.
SMILES,Mtb growth
NC(=O)c1ccccc1NC(=O)C1c2ccccc2Oc2ccccc21,i
COc1ccc(NC(=S)NNC(=O)c2ccc(COc3ccc4ccccc4c3)o2)c(OC)c1,i
COc1ccc(-n2nc(Nc3ccc(OC)c4cccnc34)c(C(C)=O)n2)cc1,i
COc1ccc(CCC(=O)Nc2ccc(CC#N)cc2)cc1,i
